Compound activity as filed in PubChem.
NOMO-1 viab: NOMO-1 AML cell viability reduction, primary screen, STK33 inhibitor project, CellTiter-Glo luminescence. NOMO-1 AML viability, 72 h. inhibition, % (no concentration beside the values). 37,000 compounds, 7.5% hits;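 active = most replicates above 80%; inconclusive = exactly half above 80%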;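 also: wells of about 30 µL received 25 nL stock; 0% = median of vehicle wells and 100% = reference inhibitor level; the first replicate is given; inactives centre near 10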
Starred values were filed as active, the others as inactive; ? = inconclusive. Not all compounds are listed; rates above refer to the full screens.

SMILES	NOMO-1 viab
CC(C(=O)Nc1ccc(Oc2ccccc2)cc1)N1c2cccc3cccc(c23)S1(=O)=O (configuration not stated)	23
C[C@H](CO)N1C[C@H](C)[C@H](CN(C)C(=O)Nc2cccc3ccccc23)Oc2ccc(NS(=O)(=O)c3cn(C)cn3)cc2CC1=O	-8
CCCc1ccc(-c2cc(C(=O)NCc3ccccn3)c3ccccc3n2)cc1	40
Cc1ccc(S(=O)(=O)Nc2ccc3c(c2)CC(=O)N([C@H](C)CO)C[C@H](C)[C@H](CN(C)C(=O)Nc2ccccc2)O3)cc1	21
Cc1ccc(S(=O)(=O)Nc2cccc3c2O[C@H](CN(C)S(=O)(=O)c2ccc(Cl)cc2)[C@H](C)CN([C@@H](C)CO)C3=O)cc1	10
COc1ccc(CN(C)C[C@@H]2Oc3ccc(NC(=O)Nc4ccc(OC)cc4)cc3CC(=O)N([C@H](C)CO)C[C@@H]2C)cc1	-2
Cc1cc([N+](=O)[O-])ccc1NC(=O)CSc1nnc(-c2cc3ccccc3o2)n1C	23
C[C@@H]1CN([C@H](C)CO)C(=O)Cc2cc(NC(=O)Nc3ccc(F)cc3)ccc2O[C@@H]1CN(C)S(=O)(=O)c1ccc(F)cc1	-1
C[C@H](CO)N1C[C@H](C)[C@H](CN(C)CC2CC2)Oc2c(NC(=O)c3cnccn3)cccc2C1=O	-21
COc1ccc(S(=O)(=O)Nc2ccc3c(c2)C(=O)N([C@H](C)CO)C[C@H](C)[C@H](CN(C)Cc2ccc(C(=O)O)cc2)O3)cc1	-26
COC(=O)c1ccc(Cl)c(NC(=O)CSc2nc(-c3ccccc3)cc(C(F)(F)F)n2)c1	113*
CC(=O)Nc1c(Br)c(C2CC2)nn1-c1ccccc1	-18
C[C@@H]1CN([C@H](C)CO)C(=O)c2cccc(NC(=O)c3nc4ccccc4s3)c2O[C@@H]1CN(C)C	6
C[C@H]1CN([C@@H](C)CO)C(=O)c2cccc(NC(=O)C3CCOCC3)c2O[C@@H]1CN(C)C(=O)NC1CCCCC1	-2
C[C@@H]1CN([C@H](C)CO)C(=O)c2cc(NC(=O)Nc3cccc4ccccc34)ccc2O[C@H]1CN(C)S(=O)(=O)c1ccc(Cl)cc1	0
COCCNS(=O)(=O)c1cc(OC)c(C)cc1C	-6
COc1ccccc1NC(=O)NCCc1ccncc1	19
C[C@@H]1CN([C@H](C)CO)C(=O)c2cccc(NS(=O)(=O)c3ccc(F)cc3)c2O[C@H]1CN(C)Cc1ccc(-c2ccccc2)cc1	13
C[C@H](CO)N1C[C@H](C)[C@@H](CN(C)Cc2ccc(Oc3ccccc3)cc2)Oc2ccc(NC(=O)CCC(F)(F)F)cc2C1=O	2
Cc1ccc(NC(=O)COc2ccc(Br)cc2CO)cc1	15
C[C@H]1CN([C@@H](C)CO)C(=O)c2cccc(NC(=O)c3nc4ccccc4s3)c2O[C@@H]1CN(C)Cc1ccc(Oc2ccccc2)cc1	23
Cc1ccc(S(=O)(=O)Nc2cccc3c2O[C@@H](CN(C)CC2CCCCC2)[C@H](C)CN([C@H](C)CO)C3=O)cc1	7
C[C@H](CO)N1C[C@H](C)[C@H](CN(C)C(=O)NC2CCCCC2)Oc2ccc(NS(=O)(=O)c3ccccc3)cc2CC1=O	12
C[C@H]1CN([C@@H](C)CO)C(=O)Cc2cc(NC(=O)Cc3ccccc3)ccc2O[C@@H]1CN(C)S(C)(=O)=O	9
COc1ccc(NC(=O)N(C)C[C@H]2OCCCC[C@@H](C)Oc3ccc(NS(=O)(=O)c4ccc(OC)cc4)cc3C(=O)N([C@H](C)CO)C[C@@H]2C)cc1	39
C[C@@H]1CN([C@H](C)CO)C(=O)c2cccc(NC(=O)c3ccncc3)c2O[C@@H]1CN(C)Cc1ccncc1	-24
C[C@H]1CN([C@@H](C)CO)C(=O)c2cc(NC(=O)Cc3cn(C)c4ccccc34)ccc2O[C@@H]1CN(C)Cc1ccc(Cl)c(Cl)c1	88*
C[C@@H]1CN([C@@H](C)CO)C(=O)Cc2cc(NS(=O)(=O)c3ccccc3)ccc2O[C@@H]1CN(C)C(=O)Nc1ccc(F)cc1	19
C[C@H]1CN([C@@H](C)CO)C(=O)c2cccc(NS(=O)(=O)c3cn(C)cn3)c2O[C@H]1CN(C)CC1CCCCC1	18
CCn1c2ccccc2n2c(SCCC(=O)O)nnc12	-5
COc1ccc(C2OCC3(O)C(c4ccc(OC)c(OC)c4)OCC23)cc1OC (configuration not stated)	22
O=S1(=O)CC=C(Sc2ccccc2)C1	-1
CCOC(=O)CCS(=O)(=O)c1nc(-c2ccccc2)cc(C(F)(F)F)n1	115*
NC(=O)CSc1nc2ccccc2n1CC(=O)N1CCCCC1	32
CS(=O)(=O)N(CC(=O)Nc1c(F)cccc1F)c1ccccc1	-9
COc1ccc(S(=O)(=O)Nc2cccc3c2O[C@H](CN(C)Cc2ccc(C(=O)O)cc2)[C@@H](C)CN([C@@H](C)CO)C3=O)cc1	-15
C[C@@H]1CN([C@H](C)CO)C(=O)c2cccc(NC(=O)c3ccc(-c4nccs4)cc3)c2O[C@@H]1CN(C)Cc1ccc(Cl)c(Cl)c1	?
C[C@@H]1CN([C@@H](C)CO)C(=O)Cc2cc(NC(=O)C3CCCCC3)ccc2O[C@@H]1CN(C)Cc1ccccc1	22
C[C@H]1CN([C@@H](C)CO)C(=O)c2cc(NC(=O)Nc3ccc(F)cc3)ccc2O[C@H]1CN(C)CC1CCCCC1	4
c1ccc(Cc2ccc[n+](Cc3ccccn3)c2)cc1	14
C[C@@H]1CN([C@H](C)CO)C(=O)c2cccc(NC(=O)Nc3ccc(C(F)(F)F)cc3)c2O[C@H]1CN(C)S(=O)(=O)c1cn(C)cn1	23
COc1ccc(NC(=O)N(C)C[C@@H]2Oc3c(NC(=O)c4cc(C)nn4C)cccc3C(=O)N([C@H](C)CO)C[C@@H]2C)cc1	29
C[C@@H]1CN([C@@H](C)CO)C(=O)c2cc(NS(=O)(=O)c3ccc(Cl)cc3)ccc2O[C@@H]1CN(C)Cc1ccc(Oc2ccccc2)cc1	114*
C[C@H]1CN([C@@H](C)CO)C(=O)c2cc(NS(=O)(=O)c3cccs3)ccc2O[C@@H]1CN(C)Cc1ccc(Cl)c(Cl)c1	47
COc1ccc(S(=O)(=O)N(C)C[C@@H]2Oc3c(NS(=O)(=O)c4ccc(Cl)cc4)cccc3C(=O)N([C@@H](C)CO)C[C@H]2C)cc1	23
COc1ccc(C(=O)NCC(=O)Nc2ccc(C)c(Cl)c2)cc1	-4
COc1cc(NC(=O)CSc2ccccc2)c(C(=O)O)cc1OC	-17
C[C@@H]1CCCCO[C@@H](CN(C)C(=O)NC2CCCCC2)[C@@H](C)CN([C@H](C)CO)C(=O)c2cc(NC(=O)NC3CCCCC3)ccc2O1	15
O=C(O)CCc1ccc(-c2cccs2)n1-c1cccc(C(F)(F)F)c1	0
C[C@H](CO)N1C[C@H](C)[C@@H](CN(C)C)Oc2c(NC(=O)Nc3ccc(C(F)(F)F)cc3)cccc2C1=O	31
COc1ccc(S(=O)(=O)Nc2ccc3c(c2)CC(=O)N([C@@H](C)CO)C[C@H](C)[C@H](CN(C)Cc2ccccc2)O3)cc1	46
COc1ccc(S(=O)(=O)N(C)C[C@@H]2Oc3c(NC(=O)c4ccncc4)cccc3C(=O)N([C@@H](C)CO)C[C@@H]2C)cc1	12
COc1ccc(OC)c(-c2cc(C(=O)NC(C)c3ccc(OC)c(OC)c3)c3ccccc3n2)c1 (configuration not stated)	7
C[C@H](CO)N1C[C@H](C)[C@H](CN(C)Cc2ccncc2)Oc2ccc(N(C)C)cc2C1=O	6
CN(C(=O)COc1ccc(Oc2ccccc2)cc1)C1CCS(=O)(=O)C1 (configuration not stated)	-9
O=C(NC1CCN(C(=O)c2ccc(Cl)cc2Cl)CC1)c1ccccc1	18

Additional structures
SMILES	NOMO-1 viab
O=C(NCc1ccco1)c1cccc(NC(=O)c2ccco2)c1	19
C[C@H]1CN([C@@H](C)CO)C(=O)c2cccc(NC(=O)c3ccncc3)c2O[C@@H]1CN(C)Cc1ccc(C(=O)O)cc1	-1
Cc1c(C(=O)Nc2nnc(SC/C=C/c3ccccc3)s2)oc2ccccc12	27
C[C@H](CO)N1C[C@H](C)[C@@H](CN(C)Cc2ccc(Oc3ccccc3)cc2)Oc2c(NS(=O)(=O)c3ccccc3)cccc2C1=O	33
COc1ccccc1NC(=O)C(Cc1ccccc1)N1C(=O)C2C3c4ccccc4C(c4ccccc43)C2C1=O (configuration not stated)	92*
C[C@@H]1CCCCO[C@@H](CN(C)S(=O)(=O)c2ccc(F)cc2)[C@@H](C)CN([C@H](C)CO)C(=O)c2cc(NC(=O)Nc3cccc4ccccc34)ccc2O1	11
O=C(CSc1nc2[nH]ncc2c(=O)n1-c1ccccc1)c1ccc2c(c1)OCCO2	28
C[C@@H]1CN([C@@H](C)CO)C(=O)c2cc(NS(=O)(=O)c3cn(C)cn3)ccc2O[C@@H]1CN(C)Cc1ccc2c(c1)OCO2	24
Cc1cccc(OCC(=O)Nc2cc(-c3nc4cc(Cl)ccc4o3)ccc2C)c1	103*
C[C@H](CO)N1C[C@H](C)[C@H](CN(C)Cc2ccncc2)Oc2c(NC(=O)Nc3cccc4ccccc34)cccc2C1=O	12
O=C(O)c1ccccc1NS(=O)(=O)c1cccc(C(=O)N2CCCc3ccccc32)c1	-22
C[C@H]1CN([C@@H](C)CO)C(=O)c2cccc(NC(=O)Nc3ccccc3)c2O[C@@H]1CN(C)C(=O)Nc1ccc(F)cc1	4
O=C(O)CSc1nc2ccccc2n1CC(=O)O	-14
C[C@H]1CN([C@@H](C)CO)C(=O)Cc2cc(NC(=O)Nc3ccc(F)cc3)ccc2O[C@H]1CN(C)C(=O)Nc1ccc(C(F)(F)F)cc1	62
C[C@H]1CN([C@@H](C)CO)C(=O)c2cc(NS(=O)(=O)c3cn(C)cn3)ccc2O[C@H]1CN(C)Cc1ccccc1	2
C[C@H]1CN([C@@H](C)CO)C(=O)c2cc(NC(=O)Nc3ccc(F)cc3)ccc2O[C@@H]1CN(C)C(=O)Nc1cccc2ccccc12	-6

The last six compounds of the section above lead into the next.
SMILES	NOMO-1 viab
O=C(O)c1ccccc1NS(=O)(=O)c1cccc(C(=O)N2CCCc3ccccc32)c1	-22
C[C@H]1CN([C@@H](C)CO)C(=O)c2cccc(NC(=O)Nc3ccccc3)c2O[C@@H]1CN(C)C(=O)Nc1ccc(F)cc1	4
O=C(O)CSc1nc2ccccc2n1CC(=O)O	-14
C[C@H]1CN([C@@H](C)CO)C(=O)Cc2cc(NC(=O)Nc3ccc(F)cc3)ccc2O[C@H]1CN(C)C(=O)Nc1ccc(C(F)(F)F)cc1	62
C[C@H]1CN([C@@H](C)CO)C(=O)c2cc(NS(=O)(=O)c3cn(C)cn3)ccc2O[C@H]1CN(C)Cc1ccccc1	2
C[C@H]1CN([C@@H](C)CO)C(=O)c2cc(NC(=O)Nc3ccc(F)cc3)ccc2O[C@@H]1CN(C)C(=O)Nc1cccc2ccccc12	-6
CCCn1c(=O)c2[nH]c(C3CCCC3)nc2n(CCC)c1=O	-1
C[C@H](CO)N1C[C@H](C)[C@@H](CN(C)CC2CCCCC2)Oc2c(NS(C)(=O)=O)cccc2C1=O	6
CCOc1ccc(NC(=O)NC23CC4CC(CC(C4)C2)C3)cc1	?
C[C@@H]1CN([C@@H](C)CO)C(=O)c2cccc(NS(=O)(=O)c3ccc(Cl)cc3)c2O[C@H]1CN(C)S(=O)(=O)c1cccs1	0
C[C@@H]1CN([C@@H](C)CO)C(=O)c2cc(NS(C)(=O)=O)ccc2O[C@H]1CN(C)S(=O)(=O)c1ccc(F)cc1	21
C[C@H]1CN([C@@H](C)CO)C(=O)Cc2cc(NS(=O)(=O)c3ccc(F)cc3)ccc2O[C@@H]1CN(C)C(=O)Nc1ccc(C(F)(F)F)cc1	18
C[C@H]1CN([C@@H](C)CO)C(=O)c2cccc(NC(=O)c3cnccn3)c2O[C@H]1CN(C)Cc1ccc(Cl)c(Cl)c1	31
O=C(CN1C(=O)C2C3C=CC(C4CC34)C2C1=O)Nc1ccc(Oc2ccccc2Cl)cc1 (configuration not stated)	-1
C[C@H]1CN([C@@H](C)CO)C(=O)c2cccc(NS(=O)(=O)c3cccs3)c2O[C@@H]1CN(C)C(=O)Nc1ccc(F)cc1	-7
C[C@H](CO)N1C[C@H](C)[C@@H](CN(C)Cc2ccc(Cl)c(Cl)c2)Oc2c(NC(=O)C3CC3)cccc2C1=O	43
COc1ccc(CC2CCc3ncc(C)cc3C2)cc1 (configuration not stated)	60
COc1cc(OC)c(NC(=O)CN(C)S(=O)(=O)c2cc(Cl)ccc2Cl)cc1Cl	13
C[C@H]1CN([C@@H](C)CO)C(=O)Cc2cc(NC(=O)Cn3cnnn3)ccc2O[C@H]1CN(C)C(=O)Nc1cccc2ccccc12	-6
COc1ccccc1OCC(=O)Nc1oc(-c2ccccc2)c(-c2ccccc2)c1C#N	-11
Cc1nc(SCC(=O)NCc2ccccc2)c2c(C)c(C)sc2n1	24
Cc1ccc(S(=O)(=O)N(C)C[C@@H]2Oc3ccc(NC(=O)c4ccncc4)cc3CC(=O)N([C@@H](C)CO)C[C@@H]2C)cc1	5
CCCCN1COc2ccc(CCNC(=O)c3ccc(Cl)cc3)cc2C1	33
C[C@@H]1CCCCO[C@H](CN(C)C(=O)NC2CCCCC2)[C@@H](C)CN([C@H](C)CO)C(=O)c2cc(NC(=O)Cc3ccccc3)ccc2O1	21
C[C@@H]1CN([C@@H](C)CO)C(=O)c2cccc(NS(=O)(=O)c3ccc(F)cc3)c2O[C@@H]1CN(C)Cc1ccc(C(F)(F)F)cc1	15
C[C@H]1CN([C@@H](C)CO)C(=O)c2cccc(NC(=O)NC3CCCCC3)c2O[C@H]1CN(C)S(C)(=O)=O	-14
